Source: PubChem (Broad Institute)
FGF22 binding = binders of human FGF22 protein, primary screen, FGF22 synaptogenesis inhibitor project, biophysical, thermal shift, single point; calls only at 9.99 µM; 1.5% of 340,000 active; recombinant FGF22 thermal shift, SYPRO orange fluorescence; percent of sucrose octasulfate shift, DMSO zero; AID 651658, 2012;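 active = melting point raised past a set limit in the mean and every replicate; three in four hits are not shown here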
Target sequence (Q9HCT0 whole entry, looked up): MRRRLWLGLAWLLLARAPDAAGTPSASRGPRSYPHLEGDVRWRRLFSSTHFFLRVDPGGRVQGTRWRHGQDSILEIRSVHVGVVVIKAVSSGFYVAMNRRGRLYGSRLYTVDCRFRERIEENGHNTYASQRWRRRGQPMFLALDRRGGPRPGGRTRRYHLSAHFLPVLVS
Ecoli rRNA inh = reduced GFP signal of wild-type E. coli, primary screen, bacterial rRNA inhibitor project, GFP/RFP fluorescence, OD600, single point; GFP signal change (wild-type ribosome), % (test concentration not listed); 1.6% of 350,000 active; E. coli WT GFP vs humanized-ribosome RFP mutants, 24 h; active compounds read low; DMSO median 0, no signal -100;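 active = significant combined selectivity score with lowered wild-type GFP, culture density cut under 30%, mutant RFP and density less affected; inactive = any of these conditions unmet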; also: one replicate is shown; some compounds called inactive have numbers as strong as hits
MLL AF4-AF9 inh = inhibitors of AF4 peptide binding to AF9, primary screen, biochemical, AlphaScreen, biotin-AF4 peptide, FLAG-AF9, single point | inhibition, % at 10 µM | 0.47% of 350,000 active | AID 651704, 2012;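 active = every replicate reaching a set inhibition limit, whatever the replicate mean, cut at about 25% in these data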;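 also: 0% = plate neutral control median and 100% = total signal loss; the record names both 10 and 1 µM as test concentration; the first replicate is given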
Target sequence (P42568 whole entry, looked up): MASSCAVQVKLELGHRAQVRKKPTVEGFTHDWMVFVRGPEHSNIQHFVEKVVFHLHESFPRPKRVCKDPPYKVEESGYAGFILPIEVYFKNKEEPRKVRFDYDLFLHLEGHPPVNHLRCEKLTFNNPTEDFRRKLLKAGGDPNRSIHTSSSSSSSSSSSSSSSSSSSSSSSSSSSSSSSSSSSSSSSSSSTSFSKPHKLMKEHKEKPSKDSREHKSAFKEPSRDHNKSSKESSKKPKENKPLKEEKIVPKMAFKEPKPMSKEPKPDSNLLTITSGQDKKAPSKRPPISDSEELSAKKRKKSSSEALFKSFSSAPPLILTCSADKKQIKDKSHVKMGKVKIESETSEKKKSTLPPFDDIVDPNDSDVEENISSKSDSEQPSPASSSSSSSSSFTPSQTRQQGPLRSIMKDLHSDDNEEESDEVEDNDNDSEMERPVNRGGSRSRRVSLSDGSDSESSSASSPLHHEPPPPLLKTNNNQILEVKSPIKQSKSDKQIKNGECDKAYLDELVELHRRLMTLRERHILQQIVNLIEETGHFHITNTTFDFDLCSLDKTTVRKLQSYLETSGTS
Ecoli rRNA inh OD600 = second read-out of Ecoli rRNA inh, no call of its own (marks repeat the call); OD600 change, %; measured here: OD600 growth;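 optical density of the mix in the first replicate; 0 = DMSO median and -100 = no signal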
Ecoli rRNA inh RFP = recorded beside Ecoli rRNA inh, whose call it bears; RFP signal change, %; measured here: RFP humanized mutant strains;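 first replicate; 0 = DMSO median and -100 = no signal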
* hit, by the source's call; i = inactive; & = joins results of further samples. Not all compounds are listed, so the mix of outcomes need not match the whole.

SMILES | FGF22 binding | Ecoli rRNA inh | Ecoli rRNA inh OD600 | Ecoli rRNA inh RFP | MLL AF4-AF9 inh
O=C(Nc1ccccc1)N[C@@H]1CC[C@H](CCNC(=O)c2ccccc2F)O[C@@H]1CO | i | 4.5 | 8.3 | -2.4 | 2.5
O=C(Nc1cccc(F)c1)N[C@@H]1CC[C@H](CCNS(=O)(=O)c2cccc(Cl)c2)O[C@@H]1CO | i | -5.0 | 3.6 | 9.8 | 0.6
Cc1ccc(N2C(=O)N(CC(=O)N3c4ccccc4CC3C)C(=O)C2C)cc1 (stereo not given) | i | -12.5 | -6.6 | 2.6 | -0.4
CO[C@H](CN(C)Cc1cc(F)ccc1F)[C@@H](C)CN([C@H](C)CO)S(=O)(=O)c1ccc(F)cc1 | i | -2.2 | 10.7 | -2.5 | -3.0
COCC(=O)N(C)C[C@@H]1Oc2ncc(/C=C/c3ccccc3)cc2C(=O)N([C@@H](C)CO)C[C@H]1C | i | 1.4 | 6.7 | -1.6 | -2.9
C[C@H]1CN([C@@H](C)CO)C(=O)Cc2cc(NC(=O)NC3CCCCC3)ccc2O[C@H]1CN(C)S(C)(=O)=O | i | 1.2 | 1.0 | -1.2 | -4.3
O=C(NCC1CCCCC1)c1ccc2nc([C@@H]3O[C@H](CO)[C@H](O)[C@H](O)[C@H]3O)[nH]c2c1 | i | 3.4 | 13.2 | -8.0 | -2.3
COc1ccc(-c2cn(CC[C@H]3CC[C@H](NC(=O)NC(C)C)[C@@H](CO)O3)nn2)cc1 | i | 0.3 | -3.9 | -0.7 | 0.8
C[C@H](CO)N1C[C@H](C)[C@H](CN(C)S(=O)(=O)c2ccccc2)OCCCC[C@H](C)Oc2ccc(NC(=O)Nc3ccc(F)cc3)cc2C1=O | i | -1.4 | 1.2 | -1.2 | 0.2
C[C@@H]1CCCCO[C@H](CN(C)Cc2ccc3c(c2)OCO3)[C@@H](C)CN([C@H](C)CO)C(=O)c2cc(NC(=O)NC3CCCCC3)ccc2O1 | i | 2.3 | -1.9 | -0.9 | 1.5
Cc1ccc(S(=O)(=O)N[C@H]2CC[C@H](CC(=O)NC3CCCCC3)O[C@@H]2CO)cc1 | i | -2.2 | -0.8 | 1.6 | -2.7
O=C(c1ccccc1F)N1CC[C@@H]2[C@@H](CO)Nc3ccc(-c4ccccc4)cc3[C@@H]21 | i | -6.7 | -57.7 | 13.1 | 7.5
CN(C)C(=O)c1ccc(-c2ccc3c(c2)[C@H]2[C@H](CCN2C(=O)C2CC2)[C@H](CO)N3C)cc1 | i | -6.6 | 3.9 | 1.9 | -11.0
C[C@H](O)C#Cc1ccc2c(c1)O[C@H](CN(C)C(=O)CN(C)C)[C@H](C)CN([C@H](C)CO)S2(=O)=O | i | 1.1 | -1.7 | 0.6 | -2.6
C[C@@H]1CN([C@H](C)CO)S(=O)(=O)c2ccc(C#C[C@@H](C)O)cc2O[C@@H]1CN(C)Cc1ccc(-c2ccccc2)cc1 | i | -4.9&-4.9 | -21.4&-31.6 | 3.0&4.5 | 4.5&13.3&9.0

Look-ups from the list.
Reading for `C[C@H]1CN([C@@H](C)CO)C(=O)Cc2cc(NC(=O)NC3CCCCC3)ccc2O[C@H]1CN(C)S(C)(=O)=O` under Ecoli rRNA inh OD600: 1.0
Reading for `C[C@@H]1CCCCO[C@H](CN(C)Cc2ccc3c(c2)OCO3)[C@@H](C)CN([C@H](C)CO)C(=O)c2cc(NC(=O)NC3CCCCC3)ccc2O1` under Ecoli rRNA inh: 2.3
Reading for `C[C@H](O)C#Cc1ccc2c(c1)O[C@H](CN(C)C(=O)CN(C)C)[C@H](C)CN([C@H](C)CO)S2(=O)=O` under Ecoli rRNA inh OD600: -1.7

Some of the entries above, set out differently.
SMILES	FGF22 binding	Ecoli rRNA inh	Ecoli rRNA inh OD600	Ecoli rRNA inh RFP	MLL AF4-AF9 inh
O=C(NCC1CCCCC1)c1ccc2nc([C@@H]3O[C@H](CO)[C@H](O)[C@H](O)[C@H]3O)[nH]c2c1	i	3.4	13.2	-8.0	-2.3
COc1ccc(-c2cn(CC[C@H]3CC[C@H](NC(=O)NC(C)C)[C@@H](CO)O3)nn2)cc1	i	0.3	-3.9	-0.7	0.8

Next section.
SMILES | FGF22 binding | Ecoli rRNA inh | Ecoli rRNA inh OD600 | Ecoli rRNA inh RFP | MLL AF4-AF9 inh
Cc1ccc(S(=O)(=O)Oc2ccccc2)cc1 | i | 2.6 | -9.0 | -2.8 | -4.3
O=C(C[C@H]1CC[C@@H](NC(=O)Cc2cccnc2)[C@@H](CO)O1)Nc1ccc(-c2ccccc2)cc1 | i | -3.4 | -6.2 | -1.3 | 0.8
Cc1ccc(S(=O)(=O)N[C@H]2C=C[C@H](CC(=O)N3CCc4ccccc4C3)O[C@@H]2CO)cc1 | i | -1.7 | -7.9 | -2.3 | -5.5
COc1ccccc1NC(=O)N(C)C[C@@H]1Oc2cc(Br)ccc2S(=O)(=O)N([C@@H](C)CO)C[C@H]1C | i | -1.9 | -0.9 | 0.6 | 1.1
C[C@H](CO)N1C[C@H](C)[C@@H](CN(C)Cc2ccc(C(=O)O)cc2)Oc2ccc(NC(=O)Nc3ccc(F)cc3)cc2CC1=O | i | 0.5 | -3.0 | 1.0 | 0.4
C[C@H](CO)N1C[C@H](C)[C@H](CN(C)C(=O)Nc2ccc3c(c2)OCO3)Oc2ccc(NS(=O)(=O)c3ccc(Cl)cc3)cc2C1=O | i | -0.3 | -7.7 | -0.1 | 5.3
CC(=O)Nc1cccc(-c2ccnc3c2CC(C(=O)Nc2ccccc2)O3)c1 (stereo not given) | i | -2.7 | 0.9 | 1.5 | -0.9
COc1ccc(NC(=O)Nc2ccc3c(c2)[C@H]2C[C@@H](CC(=O)NCC(F)(F)F)O[C@@H](CO)[C@H]2O3)cc1 | i | 1.3 | 5.5 | -0.4 | 1.5
CNC[C@H]1Oc2c(NC(=O)c3ccc(-c4nccs4)cc3)cccc2C(=O)N([C@H](C)CO)C[C@@H]1C | i | 0.6 | -0.9 | -1.8 | -2.0
CO[C@H]1CN(C)C(=O)c2ccc(NC(=O)Nc3ccc(Cl)cc3)cc2OC[C@H](C)N(C(=O)Nc2c(C)noc2C)C[C@H]1C | i | -3.8 | -9.6 | 1.9 | 3.1
COc1ccccc1-c1cnc2c(c1)C(=O)N([C@@H](C)CO)C[C@H](C)[C@@H](CN(C)Cc1cncnc1)O2 | i | -1.8 | -3.1 | -2.2 | -3.5
O=C(C[C@@H]1CC[C@@H]2[C@H](COC[C@H](O)CN2C(=O)Nc2ccccc2)O1)NCCc1ccncc1 | i | 2.2 | 10.7 | -1.9 | -1.6
Cc1noc(C)c1S(=O)(=O)Nc1ccc2c(c1)C(=O)N([C@@H](C)CO)C[C@@H](C)[C@@H](CN(C)C(=O)Nc1cccc3ccccc13)OCCCC[C@@H](C)O2 | i | -1.5 | -3.0 | 3.5 | -3.6
C[C@@H]1CN([C@H](C)CO)C(=O)c2cc(C#CCN(C)C)cnc2O[C@@H]1CN(C)Cc1ccc(-c2ccccc2)cc1 | i | 1.8 | 0.5 | 0.9 | 15.9
C[C@H](CO)N1C[C@H](C)[C@@H](CN(C)Cc2ccc(Oc3ccccc3)cc2)Oc2ccc(NC(=O)CCN3CCOCC3)cc2CC1=O | i | -56.8 | -78.5 | -16.0 | 12.1
CCC(=O)N1[C@H](CO)[C@H]2c3ccccc3N(S(=O)(=O)c3ccccc3)C[C@H]21 | i | -0.7 | 4.2 | 1.2 | -0.2
C[C@@H]1CN([C@@H](C)CO)C(=O)c2cc(NC(=O)Nc3ccc(C(F)(F)F)cc3)ccc2O[C@@H]1CN(C)C(=O)Nc1ccc(F)cc1 | i | -0.6 | -0.8 | 1.9 | 3.7
COc1ccc(C(=O)Nc2ccc3c(c2)C(=O)N(C)C[C@H](OC)[C@H](C)CN(C(C)=O)[C@H](C)CO3)cc1 | i | -1.7 | -5.5 | 0.1 | 2.6
CCC(=O)Nc1ccc2c(c1)C(=O)N(C)C[C@H](OC)[C@H](C)CN(Cc1ccccc1)[C@H](C)CO2 | i | 4.5 | 2.2 | 1.7 | 2.5
COc1cccc(C(=O)OCC(=O)NC2CCCc3ccccc32)c1O (stereo not given) | i | 0.1 | 3.5 | -1.2 | -4.6
CC(C)NC(=O)N(C)C[C@H]1Oc2ncc(C#CCC3CCCC3)cc2C(=O)N([C@@H](C)CO)C[C@H]1C | i | 2.6 | 0.1 | 3.6 | -9.2
COc1ccc(NC(=O)N2C[C@@H](O)COC[C@H]3O[C@@H](CC(=O)N4CCCCC4)CC[C@@H]32)cc1 | i | 1.6 | 7.0 | -4.4 | 0.0
CNC[C@H]1OCCCC[C@H](C)Oc2ccc(NS(=O)(=O)c3ccc(OC)cc3)cc2C(=O)N([C@@H](C)CO)C[C@H]1C | i | -0.2 | 1.9 | -0.3 | 2.1
O=C(CN1CCOCC1)N[C@@H]1CC[C@@H](CCNS(=O)(=O)c2ccccc2F)O[C@H]1CO | i | 0.3 | 4.5 | -0.3 | -1.2
C[C@@H]1CN([C@H](C)CO)C(=O)Cc2cc(NS(=O)(=O)c3ccccc3)ccc2O[C@@H]1CN(C)C(=O)Nc1ccccc1 | i | 2.9 | 5.5 | 3.0 | -3.9
C[C@H]1CN([C@@H](C)CO)C(=O)CCCn2cc(nn2)CO[C@@H]1CN(C)C(=O)c1cc(-c2ccccc2)on1 | i | 6.5&-0.8 | 10.4&-3.4 | -1.1&0.2 | -1.5&-1.6
OC[C@H]1[C@@H](c2ccccc2)C2(CN(Cc3ccccn3)C2)N1Cc1cncnc1 | i | 2.6 | 11.7 | -0.5 | -1.6
CO[C@H]1CN(C)C(=O)c2ccc(NC(=O)c3ccccc3F)cc2OC[C@@H](C)N(CC2CC2)C[C@H]1C | i | 1.2 | -2.2 | -0.3 | -0.3
CC1(C(=O)NS(=O)(=O)c2cccs2)CCN1C(=O)C1CC1 (stereo not given) | i | 11.2 | 17.1 | -0.6 | -4.4
C[C@H](CO)N1C[C@H](C)[C@H](CN(C)Cc2ccc(Cl)c(Cl)c2)Oc2ccc(NS(C)(=O)=O)cc2CC1=O | i | -13.9 | -60.8 | 13.1 | -1.0
CC(C)NC(=O)Nc1cccc2c1O[C@H](CN(C)C(=O)Nc1ccc(F)cc1)[C@@H](C)CN([C@H](C)CO)C2=O | i | 2.1 | 1.8 | -1.4 | 2.0
C[C@@H]1CN([C@H](C)CO)C(=O)c2cc(NC(=O)Nc3ccccc3)ccc2O[C@@H]1CN(C)Cc1ccc2c(c1)OCO2 | i | 1.5 | -8.9 | 2.3 | 6.5
C[C@@H]1CN([C@H](C)CO)C(=O)c2cc(C#CC(C)(C)O)cnc2O[C@@H]1CN(C)C(=O)C1CCC1 | i | 7.4 | 8.1 | -5.1 | -6.7
COc1ccccc1-c1ccc([C@@H]2[C@@H](CO)N(C(C)=O)C23CN(C(C)=O)C3)cc1 | i | 0.1 | 5.3 | -2.1 | -1.4
O=C(Cc1ccncc1)NCC[C@@H]1CC[C@@H](NS(=O)(=O)c2ccccc2Cl)[C@H](CO)O1 | i | 4.6 | 5.1 | -0.3 | 0.0
C[C@@H]1CN([C@H](C)CO)C(=O)c2cc(/C=C/c3ccccc3)cnc2O[C@H]1CN(C)C(=O)c1cnccn1 | i | -3.5 | -11.6 | -0.4 | 2.3
Cc1ccsc1/C=C1\Oc2cc(O)ccc2C1=O | i | -1.7 | -57.5 | -13.1 | -0.5
C[C@@H]1CN([C@H](C)CO)C(=O)c2cc(NC(=O)Cc3ccccc3)ccc2O[C@H]1CN(C)S(C)(=O)=O | i | 0.3 | 0.6 | -0.5 | -2.3
C[C@@H]1CCCCO[C@@H](CN(C)C(=O)C2CCCCC2)[C@@H](C)CN([C@@H](C)CO)C(=O)c2cc(NC(=O)c3ccncc3)ccc2O1 | i | 0.7 | 1.4 | 2.1 | 5.6
CO[C@@H]1CN(C)C(=O)c2cc(NC(=O)C3CC3)ccc2OC[C@@H](C)N(C(C)=O)C[C@@H]1C | i | 2.6 | 2.9 | -1.6 | 0.0
O=C(OCc1ccccc1)N1CCC2CC1c1ccc(Cl)cc12 (stereo not given) | i | -1.5 | -5.2 | 0.2 | 0.8
CC(=O)Nc1ccc(-c2ccnc3c2CC(C(=O)Nc2cccc(C(C)=O)c2)O3)cc1 (stereo not given) | i | -3.0 | -9.7 | 4.4 | -2.9
CCCNC(=O)N(C)C[C@H]1Oc2ncc(C#CC3(O)CCCC3)cc2C(=O)N([C@H](C)CO)C[C@@H]1C | i | 4.2 | 11.6 | -2.6 | -2.4
Cc1ccc(C)c(CC(=O)N2CCCCC2c2cc(C(=O)Nc3cccc(C#N)c3)no2)c1 (stereo not given) | i | -0.6 | -11.4 | 6.1 | -7.1
COc1cccc(NC(=O)N(C)C[C@H]2OCc3cnnn3CCCC(=O)N([C@H](C)CO)C[C@@H]2C)c1 | i | 8.8&-1.7 | 11.9&2.6 | 1.2&-0.3 | 0.7&0.6
COc1ccc(C#Cc2ccc([C@@H]3[C@H](CO)N4CCCCN(S(=O)(=O)c5cn(C)cn5)C[C@@H]34)cc2)cc1 | i | -54.0 | -67.8 | -11.1 | 4.0
